Bead autofluor: counter-screen for toxin protease inhibitors: compound fluorescence | compound autofluorescence counterscreen, microsphere flow cytometry; stronger effect = higher value | fluorescence intensity (concentration not given with the values) | AID 624483 | 3.1% of 360,000 active;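 active means at least 3 SD above the mean of all compounds, about 16000 in these data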;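 further: 100 nL of 1 mM stock went into each well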
* hit, by the source's call.

SMILES | Bead autofluor
CSCCC(C(=O)Nc1c(C)cccc1C)N1CCN(c2ccc(F)cc2)CC1 (centres undefined) | 5582
O=C(NCc1ccc(F)cc1)C(=O)NCC1OCCN1S(=O)(=O)c1cc(F)ccc1F (centres undefined) | 2882
C[C@H]1CN([C@@H](C)CO)C(=O)c2cc(Br)cnc2O[C@@H]1CN(C)S(=O)(=O)c1ccccc1 | 2993
Cc1ccc([C@H]2C[C@H](O)[C@@H](n3cc(C4CC4)nn3)CN2C(=O)c2cccs2)cc1 | 2980
O=C1CSc2ccc(C(=O)N3CCCCC3)cc2N1 | 3647
COc1ccc(N(CC(=O)N2CCN(c3ccccc3)CC2)S(=O)(=O)c2ccccc2)cc1 | 3767
CC(=O)Nc1cc(-c2ccc(C(=O)N3CCOCC3)cc2)cn2c(-c3ccc(S(C)(=O)=O)cc3)cnc12 | 3844
O=C(Nc1nnc([C@@H]2C[C@H](O)[C@@H](CO)O2)s1)c1cccc(Cl)c1 | 3841
OCCNc1ncnc2c1ncn2[C@H]1CN(C2CCCC2)C[C@@H](CO)O1 | 4171
CCCCNC(=O)C[C@@H]1C[C@@]2(C(=O)OCC)CCCC=C2N(Cc2ccco2)C1=O | 6442
CC1(C(=O)NCc2ccccc2)Cc2c(-c3ccccc3)ccnc2O1 (centres undefined) | 3527
CCOC(=O)C(N=Nc1nn[nH]n1)C(C)=O (centres undefined) | 3820

A stretch taken from the entries so far, for reference:
SMILES | Bead autofluor
CCCCNC(=O)C[C@@H]1C[C@@]2(C(=O)OCC)CCCC=C2N(Cc2ccco2)C1=O | 6442
CC1(C(=O)NCc2ccccc2)Cc2c(-c3ccccc3)ccnc2O1 (centres undefined) | 3527
CCOC(=O)C(N=Nc1nn[nH]n1)C(C)=O (centres undefined) | 3820

Carrying on.
SMILES | Bead autofluor
COc1cc(F)ccc1-c1cc(C(=O)NCc2ccc(C(F)(F)F)cc2)[nH]n1 | 4492
Cc1ccc(OCC(=O)Nc2ccc(C(=O)Nc3ccccc3C(=O)O)cc2)cc1C | 3102
COC(=O)[C@]12CCCCC=C1N(Cc1ccccc1)C(=O)[C@H](CC(=O)NCCC(C)C)C2 | 4330
C[C@H](CO)N1C[C@H](C)[C@@H](CN(C)S(=O)(=O)c2ccc(F)cc2)OCc2cn(nn2)CCCC1=O | 3771
CC(C)CNc1ncnc2c1ncn2[C@H]1CN(Cc2ccncc2)C[C@@H](CO)O1 | 3058
COc1ccc(S(=O)(=O)N2CCC3CC2c2c(-c4ccc(C(F)(F)F)cc4)cccc23)cc1 (centres undefined) | 5492
CCCNC(=O)C1(C)CCN1C(=O)c1ccccc1CCc1ccccc1 (centres undefined) | 2943
COCCNC(=O)c1cc(S(=O)(=O)N2CCC3(CC2)OCCO3)ccc1F | 3760
CCc1nnc(NC(=O)Cc2ccc(OC)c(S(=O)(=O)N3CCOCC3)c2)s1 | 3890
CCC(=O)N(C)C[C@H]1Oc2cc(-c3cccnc3)ccc2S(=O)(=O)N([C@H](C)CO)C[C@H]1C | 3738
COc1ccc(CN(C)CCCn2cnc3c(OC)ncnc32)cc1OC | 3349
C[C@H](CO)N1C[C@H](C)[C@H](CN(C)C(=O)Nc2ccccc2)OCc2cnnn2CCCC1=O | 3645
Cc1cccc(S(=O)(=O)N(C)C[C@H]2OCc3cnnn3CCCC(=O)N([C@H](C)CO)C[C@H]2C)c1 | 3779
Cc1ccc(OCCN2CCC2(C)C(=O)NCc2ccc(C(F)(F)F)cc2)cc1 (centres undefined) | 2904
COC(=O)[C@]12CCCCC=C1N(CCC1=CCCCC1)C(=O)[C@H](CC(=O)N1CCSCC1)C2 | 5784
O=C1NC[C@H](CCCCN2C[C@H](Cc3ccc(O)cc3)N(CCc3ccccc3)C(=O)C2=O)N(Cc2ccccc2)C1=O | 5652
O=C(CSc1ncccn1)NC(=O)NC1CCCC1 | 3468
Cc1ccc(C(O)c2ncc(-c3ccccc3F)[nH]2)cc1F (centres undefined) | 3623
Cc1ccc(NCC(=O)Nc2ccc(F)c(Cl)c2)cc1S(=O)(=O)N1CCOCC1 | 3959
COC12c3ccccc3-c3ccccc3C1C(C(=O)O)C2C(=O)O (centres undefined) | 5495
COc1ccc(-n2nnnc2C(c2cccc3ccccc23)N2CCC3(CC2)C(=O)NCN3c2ccccc2)cc1 (centres undefined) | 6247
COc1ccccc1N(C)S(=O)(=O)c1ccc(C(=O)NCCCN2CCCC2=O)cc1 | 2855
FC(F)C(F)(F)Oc1cccc(Nc2nccn3c(-c4cc(C(F)(F)F)cc(C(F)(F)F)c4)cnc23)c1 | 4010
CC(C)(C)c1ccc(CC(=O)N2CCC2(C)C(=O)NCc2ccc(Cl)cc2)cc1 (centres undefined) | 2840

Shown as comma-separated lines: entries from further up.
Molecule,Bead autofluor
COC12c3ccccc3-c3ccccc3C1C(C(=O)O)C2C(=O)O (centres undefined),5495
COc1ccc(-n2nnnc2C(c2cccc3ccccc23)N2CCC3(CC2)C(=O)NCN3c2ccccc2)cc1 (centres undefined),6247

In the list so far, these contain a Cl atom:
SMILES | Bead autofluor
O=C(Nc1nnc([C@@H]2C[C@H](O)[C@@H](CO)O2)s1)c1cccc(Cl)c1 | 3841
Cc1ccc(NCC(=O)Nc2ccc(F)c(Cl)c2)cc1S(=O)(=O)N1CCOCC1 | 3959
CC(C)(C)c1ccc(CC(=O)N2CCC2(C)C(=O)NCc2ccc(Cl)cc2)cc1 (centres undefined) | 2840

Next section
SMILES | Bead autofluor
COc1ccc(NC(=O)C2(C)Cc3c(-c4ccc(C(N)=O)cc4)ccnc3O2)cc1 (centres undefined) | 3543
CC1CCN(C(=O)CCC(=O)Nc2ccc([N+](=O)[O-])cc2)CC1 | 2834
COCc1cccc(-c2csc(C(O)c3ccc(F)cc3)n2)c1 (centres undefined) | 3437
OCC1OC(c2ccc(OCc3ccccc3)cc2OCc2ccccc2)C(O)C1O (centres undefined) | 3753
Cn1c(=O)c2cc(NC(=O)NCCc3cccs3)ccc2n1Cc1ccccc1 | 3021
CC(=O)Nc1cncc(-c2cccc(S(C)(=O)=O)c2)n1 | 3903
Cc1cc(N=O)c(C)cc1O | 5590
CCCS(=O)(=O)NC(=O)C1(C)CCN(C(=O)CSc2ccccc2)C1 (centres undefined) | 3775
N#Cc1ccc(C(=O)N2CCCCC2c2cc(C(=O)Nc3ccc4c(c3)OCO4)no2)cc1 (centres undefined) | 3742
Cc1cccc(C)c1-n1nnnc1C(c1cccc2ccccc12)N1CCC2(CC1)C(=O)NCN2c1ccccc1 (centres undefined) | 5483
C[C@H]1CN([C@@H](C)CO)C(=O)CCCn2nncc2CO[C@H]1CN(C)C(=O)NC1CCCCC1 | 3456
c1ccc2c(c1)ccn1c(Cc3ccsc3)c(C3CCCCC3)nc21 | 6727
Cc1cccc(NC(=O)CNC(=O)c2ccc(S(=O)(=O)NCc3ccco3)cc2)c1C | 3688
CC(=O)N1CCN(S(=O)(=O)c2cccc(C(=O)N3CCN(S(=O)(=O)c4c(C)c(C)cc(C)c4C)CC3)c2)CC1 | 3866
O=C(C1CCCCC1)N1C[C@@H](O)[C@H](n2cc(C3CC3)nn2)C[C@@H]1c1ccccc1 | 3060
CN(C)C(=O)c1cccc(-c2cccc(-c3nc(C(=O)NCc4ccccc4)cc4c3[C@@H](CCO)N(S(=O)C(C)(C)C)C4)c2)c1 (some centres undefined) | 5531
CSCCNC(=O)C1(C)CCN1C(=O)c1cc(C)n(C)n1 (centres undefined) | 3512
CC1(C)OC(=O)C2=C(CC(c3ccccc3)OC2CCc2ccccc2)O1 (centres undefined) | 3486
Cc1ccc(C(O)c2ncc(-c3cccc(C(F)(F)F)c3)[nH]2)cc1F (centres undefined) | 2814
COCCCN1C(=O)C(CC(=O)NCCCCc2ccccc2)CC(C(=O)N2CCOCC2)=C1C (centres undefined) | 3772
CC1=C(C(=O)N(C)C)CC(CC(=O)NCCCCc2ccccc2)C(=O)N1Cc1ccc(F)cc1 (centres undefined) | 3145
COc1cccc(-c2cnc3c(NC(C)=O)cc(-c4cccc(C(=O)NCCN(C)C)c4)cn23)c1 | 3594
COc1ccc(-c2nc3cc(C)c(Br)c(C)n3c2Cc2ccsc2)cc1OC | 4388
Cc1ccc(C(=O)NCc2ccc3c(c2)OCO3)c(Cl)c1 | 2788
CC(C)CCN1C(=O)c2ccccc2C1c1nnnn1Cc1ccccc1 (centres undefined) | 6077
COC(=O)N1CCCC(c2cc(C(=O)Nc3ccccc3Cl)no2)C1 (centres undefined) | 3883
O=c1cc(CN2CCCCCCC2)c2ccccc2o1 | 6247
Cc1cccc(C)c1-n1nnnc1C(c1ccnc2ccccc12)N(C)Cc1ccccc1 (centres undefined) | 5724
CCCNC(=O)C1(C)CCCN(CC(=O)c2ccccc2OC)C1 (centres undefined) | 3544
COc1ccc(CN2CCC2(C)C(=O)Nc2cccc(NS(C)(=O)=O)c2)c2ccccc12 (centres undefined) | 2950
COc1ccc(OC)c(CN2C(=O)CCC2(C)c2nnnn2-c2c(C)cccc2C)c1 (centres undefined) | 6664
CCOC(=O)c1c(NC(=O)COC(=O)c2ccc(Cl)nc2)sc(C)c1C | 3950
CCCC(=O)N1CCC1(C)C(=O)Nc1ccc(OC)c(OC)c1 (centres undefined) | 4132
C[C@H]1CN([C@@H](C)CO)C(=O)c2cc(Br)cnc2O[C@@H]1CN(C)C(=O)C1CCC1 | 3860
CCc1ccc(N2CC(C(=O)Nc3ccccc3N3CCCC3)CC2=O)cc1 (centres undefined) | 3496
COC(=O)[C@@]1(Sc2ccc(C)cc2)CC(=O)N(c2ccc3c(ccn3C)c2)[C@@H]1c1ccccc1 | 5461
CCCc1ccc2c(C(F)(F)F)cc(C(F)(F)F)cc2n1 | 5378
CC1(C)CC2(OC2c2ccccc2[N+](=O)[O-])C(=O)c2ccccc21 (centres undefined) | 3467
CN1CCN(C(=O)c2ccc(-c3cnc4cccnn34)cc2)CC1 | 3601
O=C(Nc1ccccc1)OC[C@@H]1C=CS(=O)(=O)N1Cc1ccc(Br)cc1 | 5730
Cc1ccccc1S(=O)(=O)NC(=O)C1(C)CCN1C(=O)c1c(C)noc1C (centres undefined) | 2883
COc1cc(F)ccc1-c1cc(C(=O)NCc2cccc(Cl)c2)[nH]n1 | 4190
COc1ccc(NC(=O)CCNC(=O)C2CCN(S(=O)(=O)c3ccccc3)CC2)cc1OC | 3015
CCc1nc2ccc(C(=O)N(CC)CCN(C)C)cn2c1N(C)Cc1cccs1 | 2736
CC1C(=O)N(Cc2cn(Cc3ccco3)nn2)CCS(=O)(=O)N1Cc1ccc(-c2ccc(F)nc2)cc1 (centres undefined) | 3671
CCCCNC(=O)C1(C)CCCCN1C(=O)c1ccc(F)cc1Cl (centres undefined) | 3468
CC1CCCCN1CCCNC(=O)c1ccc2c(c1)NC(=O)CN2C (centres undefined) | 3020
OC[C@@H]1CN(Cc2ccc(Cl)cc2)C[C@H](n2cnc3c(N4CCOCC4)ncnc32)O1 | 3620
CCCCCCn1cc(CN2CC(N3CCN(C4CCN(C)CC4)CC3)CS2(=O)=O)nn1 (centres undefined) | 4533
CC(=O)Nc1cccc(-c2cc(NC=O)c3ncc(-c4ccc(C(C)=O)cc4)n3c2)c1 | 3951
OC[C@@H]1CN(Cc2cccs2)C[C@H](n2cnc3c(Nc4ccccc4)ncnc32)O1 | 2849
C/C(=N/NC(=O)c1nnn(-c2nonc2N)c1CSc1ccc(Cl)cc1)c1ccncc1 | 2862
CCCC#Cc1cnc2c(c1)C(=O)N([C@H](C)CO)C[C@@H](C)[C@H](CN(C)S(=O)(=O)c1cccc(OC)c1)O2 | 3582
Cc1c(NS(=O)(=O)c2cc(C(=O)OCC(=O)c3ccccc3F)ccc2Cl)c(=O)n(-c2ccccc2)n1C | 3779
CCN(CCO)c1ccc(Nc2cc(-c3ccc(-c4ccccc4)cc3)ncn2)cc1 | 2983
Cc1ccccc1OCC(=O)OCC(=O)NC1CCCC(C)C1C (centres undefined) | 2939
CCCCC(=O)N(C)c1c(CC)nc2c(OCc3ccccc3C)cccn12 | 3571
CS(=O)(=O)/C(C#N)=C/c1cccn1S(=O)(=O)c1ccc([N+](=O)[O-])cc1 | 5100
Clc1cccc(-c2ccc3nccn3c2)c1Cl | 2952
CCOC(=O)C1=CCN(S(=O)(=O)c2ccc(Br)cc2)C1c1ccc(C)cc1 (centres undefined) | 4429

Four records picked at random from the list so far, as already listed:
SMILES | Bead autofluor
CC(=O)Nc1cccc(-c2cc(NC=O)c3ncc(-c4ccc(C(C)=O)cc4)n3c2)c1 | 3951
COc1cc(F)ccc1-c1cc(C(=O)NCc2cccc(Cl)c2)[nH]n1 | 4190
Cn1c(=O)c2cc(NC(=O)NCCc3cccs3)ccc2n1Cc1ccccc1 | 3021
COc1ccc(CN(C)CCCn2cnc3c(OC)ncnc32)cc1OC | 3349

(continued)
SMILES | Bead autofluor
COc1ccccc1Cc1c(-c2ccccc2)nc2c(C)cc(Br)cn12 | 7203
CCOC(=O)[C@]12CCC=C1N(Cc1ccccc1)C(=O)[C@H](CC(=O)NCc1cccc3ccccc13)C2 | 5971
CCCc1c(C(=O)N/N=C/c2ccc(OCc3ccccc3)cc2)nnn1-c1nonc1N | 3527
CCOC(=O)[C@]12CCCC=C1N(Cc1ccc3c(c1)OCO3)C(=O)[C@H](CC(=O)NCc1cccc3ccccc13)C2 | 6152
CC1(C(=O)NS(=O)(=O)c2ccc(C#N)cc2)CCN1C(=O)C1(c2ccccc2)CC1 (centres undefined) | 3282
COc1ccc(-c2sc3cc(OC)ccc3c2-c2ccc(OCCN3CCCCC3)cc2)cc1 | 5696
Cc1ccccc1S(=O)(=O)N(C)C[C@@H]1OCc2cnnn2CCCC(=O)N([C@H](C)CO)C[C@@H]1C | 2976
C[C@@H]1CN([C@@H](C)CO)S(=O)(=O)c2ccc(Br)cc2O[C@@H]1CN(C)C(=O)c1ccncc1 | 2974
Nc1[nH]c(C(=O)c2ccccc2)c(-c2ccc(F)cc2)c1C(=O)NCc1ccccc1 | 6350
CN(C)CCNc1ncnc2c1ncn2[C@H]1CN(Cc2ccncc2)C[C@@H](CO)O1 | 2877

Source: PubChem (NMMLSC)

Some of the compounds tested. The share of hits here may be higher or lower than overall.
